# E coli growth: E. coli growth inhibition; AID 1053175; OD600 absorbance (no concentration beside the values); hit rate 0.21% among 330,000; Escherichia coli growth, OD600, 23 h; stronger effect = lower value;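 active means OD600 absorbance below the run mean of sample wells minus 3.6 SD, in any replicate, cut at about 0.56 in these data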;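 further: stock transfer was 300 nL into about 60 µL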
# FGF22 binding: binders of recombinant human FGF22 by thermal shift; hit rate 1.5% among 340,000; calls only at 9.99 µM; Q9HCT0; SYPRO orange fluorescence; percent of sucrose octasulfate shift, DMSO zero;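 active means melting point raised past a set limit in the mean and every replicate; inconclusive means no clear call; three in four hits are not shown here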
# Target sequence (Q9HCT0 whole entry, looked up): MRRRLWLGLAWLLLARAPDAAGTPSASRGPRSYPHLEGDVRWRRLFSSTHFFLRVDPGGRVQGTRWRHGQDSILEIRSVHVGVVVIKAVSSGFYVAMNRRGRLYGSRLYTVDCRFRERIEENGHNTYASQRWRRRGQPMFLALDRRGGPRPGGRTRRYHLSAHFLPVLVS
# AF4-AF9 inh: inhibitors of human MLL-AF4/AF9 interaction | hit rate 0.47% among 350,000 | AlphaScreen, biotin-AF4 peptide binding to FLAG-AF9 | AID 651704 | P42568 | inhibition, % at 10 µM;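 active means every replicate reaching a set inhibition limit, whatever the replicate mean, cut at about 25% in these data; inconclusive means mean inhibition reaches that limit but some replicates miss it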;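 further: 0% = plate neutral control median and 100% = total signal loss; the record names both 10 and 1 µM as test concentration; the first replicate is given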
# Target sequence (P42568 whole entry, looked up): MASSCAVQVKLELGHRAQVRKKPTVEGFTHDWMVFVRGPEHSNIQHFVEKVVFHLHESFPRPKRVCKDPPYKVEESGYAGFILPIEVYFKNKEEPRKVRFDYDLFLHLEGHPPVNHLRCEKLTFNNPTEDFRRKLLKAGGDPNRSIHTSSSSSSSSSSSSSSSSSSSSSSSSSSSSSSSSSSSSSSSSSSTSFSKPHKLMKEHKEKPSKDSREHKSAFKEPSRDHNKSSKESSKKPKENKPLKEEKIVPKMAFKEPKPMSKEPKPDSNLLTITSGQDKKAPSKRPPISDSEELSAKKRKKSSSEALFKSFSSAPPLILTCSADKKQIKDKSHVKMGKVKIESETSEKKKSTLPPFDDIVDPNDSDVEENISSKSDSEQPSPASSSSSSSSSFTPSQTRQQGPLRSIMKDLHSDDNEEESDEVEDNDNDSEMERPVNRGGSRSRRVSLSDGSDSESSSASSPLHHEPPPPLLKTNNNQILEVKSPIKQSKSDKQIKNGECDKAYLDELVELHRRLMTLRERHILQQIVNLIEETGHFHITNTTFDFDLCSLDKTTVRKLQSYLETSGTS
# rRNA inh HTS: inhibits bacterial ribosomal RNA function over humanized ribosomes. E. coli WT GFP vs humanized-ribosome RFP mutants, fluorescence, 24 h; stronger effect = lower value; DMSO median 0, no signal -100. GFP signal change (wild-type ribosome), % (concentration not given with the values). hit rate 1.6% among 350,000;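 active means significant combined selectivity score with lowered wild-type GFP, culture density cut under 30%, mutant RFP and density less affected; inactive means any of these conditions unmet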; further: one replicate is shown; some compounds called inactive have numbers as strong as hits
# T cruzi repl: blocks replication of Trypanosoma cruzi; T. cruzi beta-gal in NIH3T3, luminescence, 90 h; inhibition, % (concentration not given with the values); hit rate 1.4% among 300,000; AID 1885;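 active means mean inhibition across valid replicates above about 55%, limit read from the data; inconclusive means mean below that limit but half or more replicates reach it; inactive means mean below it, under half of replicates reach it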;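 further: signal also drops with host cell toxicity which is not excluded here; 0% = plate median of DMSO wells and 100% = zero luminescence signal; higher percent means less beta-gal luminescence so fewer parasites; stock transfer was 50 nL into about 50 µL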
# UCH37 DUB inh: human UCH37 deubiquitinating enzyme inhibition. Q9Y5K5. purified proteasome/UCH37, Ub-AMC cleavage fluorescence. inhibition, % (no concentration beside the values). hit rate 0.33% among 330,000. AID 588478;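 active means mean of two replicates above 20%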;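 further: 0% = compound-free wells with enzyme and 100% = wells lacking proteasome; stock transfer was 100 nL into about 20 µL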
# Target sequence (Q9Y5K5 whole entry, looked up): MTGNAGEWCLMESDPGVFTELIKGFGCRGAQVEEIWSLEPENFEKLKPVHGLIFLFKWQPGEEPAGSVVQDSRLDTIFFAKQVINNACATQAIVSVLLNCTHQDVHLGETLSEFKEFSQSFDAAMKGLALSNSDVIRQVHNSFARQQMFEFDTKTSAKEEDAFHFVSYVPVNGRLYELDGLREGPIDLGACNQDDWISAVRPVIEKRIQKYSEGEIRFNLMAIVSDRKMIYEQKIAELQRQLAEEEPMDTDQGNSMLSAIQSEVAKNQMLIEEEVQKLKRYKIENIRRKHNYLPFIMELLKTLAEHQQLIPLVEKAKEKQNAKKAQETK
#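 Test system – human UCH37 enzyme supplied as purified proteasome complex · Incubation – 30 min preincubation with enzyme, 25 min cleavage at room temperature · Detection – AMC fluorescence from Ub-AMC cleavage, excitation 355 nm, emission 460 nm · Benchmarks – no-proteasome wells (full inhibition) and compound-free wells (no inhibition)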
# Beta cell apopt: beta cell apoptosis inhibition; INS-1E cytokine-induced death, ATP luminescence, 48 h; percent of positive-control rescue, neutral wells zero; protection from apoptosis, % (no concentration beside the values); hit rate 0.8% among 300,000;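 active means all replicates at 75% or more, or half of them and the mean; inconclusive means half reach 75% but not the mean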;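 further: 0% = cytokine-treated negative control wells and 100% = positive control rescue; higher means more ATP so stronger rescue from cytokine killing; wells of about 40 µL received 100 nL stock; the first replicate is given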
# Bfl-1 A1 inh: inhibitors of the anti-apoptotic protein A1, read as caspase activation | MEF A1-2A-BIM cells, Caspase-Glo 3/7 luminescence, 3 h; percent of clofoctol response, vehicle zero | caspase activation, % (test concentration not listed) | hit rate 0.066% among 330,000;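 active means over half of replicate activation scores above 10%, or exactly half above 10 with the replicate mean above 10; inconclusive means replicate mean below 10 yet half the replicates above 10; inactive means over half of replicates below 10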;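 further: wells of about 30 µL received 50 nL stock; many hits fall short of the cut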
# rRNA inh HTS OD600: recorded beside rRNA inh HTS, whose call it bears; OD600 change, %; measured here: OD600 growth;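 optical density of the mix in the first replicate; 0 = DMSO median and -100 = no signal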
# rRNA inh HTS RFP: also measured in rRNA inh HTS; calls as there; RFP signal change, %; measured here: RFP humanized mutant strains;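 first replicate; 0 = DMSO median and -100 = no signal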
# Starred values were filed as active, the others as inactive; i = inactive; ? = inconclusive; . = no result given. This is a subset; the hit share may differ from the screen's.
# Preview, two compounds:
SMILES,E coli growth,FGF22 binding,AF4-AF9 inh,rRNA inh HTS,rRNA inh HTS OD600,rRNA inh HTS RFP,T cruzi repl,UCH37 DUB inh,Beta cell apopt,Bfl-1 A1 inh
CC(=O)c1ccc(NC(=O)CN2CCC(C(=O)c3ccc4c(c3)OCCO4)CC2)cc1,0.679,i,1.7,5.4,3.0,6.6,4.8,1.9,3.1,-0.4
CCOc1ccccc1NC(=O)CSc1nnc(CNC(=O)c2cccs2)o1,0.63,i,-9.3,1.1,1.5,0.6,?,0.8,0.0,0.0

# The listing (from the top)
SMILES,E coli growth,FGF22 binding,AF4-AF9 inh,rRNA inh HTS,rRNA inh HTS OD600,rRNA inh HTS RFP,T cruzi repl,UCH37 DUB inh,Beta cell apopt,Bfl-1 A1 inh
CC(=O)c1ccc(NC(=O)CN2CCC(C(=O)c3ccc4c(c3)OCCO4)CC2)cc1,0.679,i,1.7,5.4,3.0,6.6,4.8,1.9,3.1,-0.4
CCOc1ccccc1NC(=O)CSc1nnc(CNC(=O)c2cccs2)o1,0.63,i,-9.3,1.1,1.5,0.6,?,0.8,0.0,0.0
COC(=O)c1sc(C(F)(F)F)c(-c2ccccc2)c1S(=O)(=O)N1CCCC1,0.666,i,-0.2,-26.0*,-17.7*,-3.5*,-1.0,3.6,-5.1,?
COc1ccc(CC(=O)Nc2ccccc2N2CCOCC2)cc1OC,0.653,i,-0.9,22.5,12.0,1.0,-4.7,-0.9,1.2,0.2
Cc1ccc(S(=O)(=O)NCCN2CCNC2=O)cc1,0.66,i,-8.5,-2.1,-2.8,-4.1,-19.4,-0.5,1.2,-0.3
O=C(COC(=O)c1cncc(Br)c1)Nc1nc(-c2ccc(F)cc2)cs1,0.663,i,-18.7,2.7,0.3,2.5,-3.7,0.6,-3.6,-3.3
CN(C)S(=O)(=O)c1cccc(NC(=S)Nc2ccc3cn[nH]c3c2)c1,0.72,i,0.9,-8.5,3.1,1.0,8.2,0.5,-21.1,-0.9
Cc1cccc2sc(NC(=O)[C@@H]3CCCN3C(=O)c3cccs3)nc12,0.725,.,.,.,.,.,2.9,5.5,-0.8,-0.7
CCn1c(SCC(=O)N2CCC(C)CC2)nc2c(c1=O)SCC2,0.719,i,3.5,-0.1,1.2,-1.8,-5.8,7.4,-3.5,-0.6
NC(=O)Cc1ccc(C(=O)c2ccc(F)cc2)s1,0.665,i,-1.2,-1.8,-1.2,11.0,-14.7,2.8,-11.5,-0.3
CN(C)c1ccc(-c2nnn(CC(=O)Nc3ccccc3N3CCOCC3)n2)cc1,0.726,i,4.4,-15.8*,4.1*,1.8*,-11.2,0.0,-4.7,-0.8
Cc1c(-c2ccc(Br)cc2)[n+](=O)c2c(n1[O-])CCCCC2,0.682,i,-0.1,10.2,0.2,-3.6,-6.5,1.9,-0.3,-0.3
Cc1cccc(N2C(=O)N3[C@H](c4ccc(Cl)cc4)[C@@H]4C(=O)N(C5CCCCC5)C(=O)[C@@H]4[C@]3(Cc3ccc(Cl)cc3)C2=O)c1,.,.,.,.,.,.,47.7,-0.5,-2.3,1.8
COc1cccc(NC(=O)CSc2c3c(nc4ccccc24)CCCC3)c1,0.691,.,.,.,.,.,22.3,17.0,-6.3,0.3
CCCCNC(=O)/C(C#N)=C/c1ccc(C(=O)OC)cc1,0.646,.,.,.,.,.,-6.4,0.8,-5.5,1.9
Cc1ccc(C(C(=O)NCC2CCCO2)N(C(=O)c2snc(C(N)=O)c2N)c2ccc(F)cc2)o1 (centres undefined),0.706,i,2.9,4.1,0.8,-3.3,-3.4,-60.0,-1.3,0.7
CN(Cc1ccc(OCC(O)CN(C)Cc2ccccc2)cc1)Cc1nccn1C (centres undefined),0.702,i,5.0,4.0,-3.6,-2.3,6.0,3.2,1.7,-0.2
COc1ccccc1N1CCN(CC(=O)NCc2ccc(Cl)cc2)CC1,0.664,i,1.2,-0.8,-4.8,-0.6,13.7,3.6,0.0,-0.1
COc1ccc(-c2cc(C(=O)N/N=C/c3cc(OC)c(OC)cc3OC)c3ccccc3n2)cc1,.,i,-2.9,22.5,13.5,-1.4,9.2,.,.,0.4
O=C(CCC(=O)Nc1ccccc1)N/N=C/c1ccco1,.,i,-0.5,14.9,13.4,-2.2,-12.3,.,-3.5,0.2
COC(=O)c1cc(COC(=O)CNC(=O)c2cccc(C)c2)oc1C,0.704,i,0.5,2.6,0.9,-0.2,.,4.7,-7.7,1.3
Cc1cc(C)n2nc(C(=O)NCc3ccco3)cc2n1,0.652,i,-2.8,15.0,13.5,-1.7,-5.0,-25.1,-1.2,0.2
CSCCC(C)N1CCC(Oc2ccc(C(=O)N3CCCC3)cc2)CC1 (centres undefined),0.689,i,-1.3,15.9,20.9,2.8,-14.7,-0.1,-0.9,0.2
Cc1ccccc1C1C(C#N)=C2NC(=O)c3c(sc4c3CCCCC4)N2C2=C1C(=O)CC(C)(C)C2 (centres undefined),0.681,.,.,.,.,.,-7.6,-14.9,0.0,-1.0
Cc1ccc(S(=O)(=O)CCC(=O)N(Cc2nnc(-c3ccc(Cl)cc3)o2)C2CC2)cc1,0.701,i,0.8,7.2,22.8,3.9,.,0.4,-0.4,0.3
CCC(CNC(=O)c1c(C)nn(-c2ccccc2)c1Cl)c1ccccc1 (centres undefined),0.665,i,0.5,-15.7,-35.8,-2.9,29.4,3.5,56.2,0.0
CCCn1c(N)c(N(CCOC)C(=O)C2CCCC2)c(=O)[nH]c1=O,0.657,i,-3.5,1.8,11.1,-0.9,.,1.3,-3.6,0.5
Cc1ccc(NS(=O)(=O)c2ccc(C)c(C(=O)N3CCN(C)CC3)c2)cc1,0.641,.,.,.,.,.,2.1,-1.7,2.0,-0.3
CC(=O)N1CCN(c2ccc(Oc3nc(-c4ccccc4)nc4ccccc34)cc2)CC1,0.686,i,-22.0,3.5,4.6,-0.8,.,0.1,.,.
O=[N+]([O-])c1cc(NCCO)c(N2CCCCCC2)c2nonc12,0.631,i,1.6,-9.1,-10.1,0.6,7.3,12.1,5.3,-0.6
CC(=O)c1ccc(Oc2ccc(C(C)=O)cc2)cc1,0.656,.,.,.,.,.,-11.9,4.5,.,0.2
COC(=O)c1ccc(COc2ccccc2/C=C(\C#N)C(=O)Nc2ccc(C)cc2C)cc1,.,i,1.0,1.5,4.1,1.7,18.5,.,9.7,1.0
O=C(NCc1ccco1)C12CC3CC(CC(C3)C1)C2,0.71,.,.,.,.,.,-3.7,-1.8,-7.1,0.5
Cc1ccc(NC(=O)COc2coc(CN3CCc4ccccc43)cc2=O)c(C)c1,0.644,i,14.9,-5.6,-7.5,6.0,1.8,0.0,3.5,0.1
O=C(NNC(=O)c1cc2ccccc2oc1=O)c1ccccc1,0.713,i,-0.2,0.9,7.6,-1.2,-13.7,1.5,-6.5,0.9
CCOC(=O)c1cc2c(OC)ccc(OC)c2n1CC(=O)c1ccccc1,0.644,i,0.5,13.2,13.3,-6.7,15.1,-17.9,-1.0,0.5
O=C(NNC(=O)C1CCN(S(=O)(=O)c2ccc(Cl)cc2)CC1)c1ccc(Cl)cc1,0.741,.,.,.,.,.,3.7,3.1,1.3,0.3
CCOC(=O)CC(NS(=O)(=O)c1ccc(NC(C)=O)cc1)c1ccc(OCC)cc1 (centres undefined),0.733,.,.,.,.,.,5.1,1.0,-0.7,-0.4
COc1ccc(OC)c(-c2csc(NC(=O)COC(=O)c3ccc(NC(=O)CC#N)cc3)n2)c1,0.709,.,.,.,.,.,.,-3.2,-4.0,1.2
C(=N\NCc1ccccc1)/c1ccc2ncccc2c1,.,i,.,-7.8,-21.3,-3.7,-0.8,.,-0.8,-2.9
COc1ccccc1CC(NC(C)=O)C(=O)NC1CCN(C(=O)NCc2ccccc2)CC1 (centres undefined),0.721,i,0.7,9.2,8.9,-2.6,-1.7,1.1,.,.
COc1ccc(N2CCN(CCCNC(=O)C(=O)c3c[nH]c4ccccc34)CC2)cc1,0.685,i,21.7,-9.3,-1.3,0.6,18.3,1.3,3.8,0.3
Cc1onc(-c2c(F)cccc2Cl)c1C(=O)Nc1nccs1,0.653,i,2.8,7.2,6.8,0.3,-12.9,1.1,7.9,0.4
Cc1oc(-c2cccs2)nc1CS(=O)CC(=O)NCCc1ccccc1 (centres undefined),0.694,i,10.0,-3.2,7.3,-3.7,-1.2,1.2,-4.7,0.3
O=C(Cc1ccccc1)NCC(=O)OC(c1ccccc1)c1ccccc1,0.662,i,-2.6,-8.0,-0.7,0.4,-15.2,0.1,-3.0,1.0
CC(C)C1C(C#N)=C(N)Oc2n[nH]c(-c3ccc4ccccc4c3)c21 (centres undefined),0.655,.,.,.,.,.,-29.2,2.3,11.4,0.9
CCC(=O)NC(=S)Nc1ccc(NC(=S)NC(=O)c2ccccc2)cc1,0.701,i,-0.4,0.9,0.1,-1.0,60.5*,2.4,.,.
Cc1cc(NC(=O)COC(=O)[C@@H]2CCCN2C(=O)c2cccs2)no1,0.7,.,0.2,2.9,-0.5,0.9,.,2.1,.,.
O=C(Cc1ccccc1[N+](=O)[O-])N1CCOCC1,0.654,i,-13.8,6.6,9.3,-2.4,-16.1,0.9,.,-0.3
C#CCOCCOCCOCCNc1nc(N2CCN(C(=O)[C@H](C)n3cc(CCC(=O)O)nn3)CC2)nc(N2CCN(C(=O)[C@H](CCCCN)n3cc(CCCC)nn3)CC2)n1,.,i,?,7.1,0.3,3.2,.,-1.7,.,.
COc1ccc(CCN(C)C(=O)CSc2nccn2C)cc1OC,0.683,.,.,.,.,.,-7.2,3.9,-7.0,-0.7
O=C(NC1CC1)C1Nc2ccc(OC(F)(F)F)cc2C2C=CCC12 (centres undefined),0.698,.,.,.,.,.,36.4,2.2,-0.3,-0.8
C1CCCCCC(NCCN2CCNCC2)CCCCC1,0.652,i,.,-2.1,9.8,7.0,-10.6,5.3,1.2,-0.5
C=CCn1c(Cc2csc(N)n2)nnc1SCC(=O)OCC,0.745,i,-68.5,6.3,3.5,-5.3,1.3,0.0,-1.4,0.2
O=C(O)C1CCN(Cc2ccccn2)CC1,0.703,i,-0.5,10.0,20.9,1.4,11.9,-0.3,.,0.3
COc1ccc(NC(=O)CCC(=O)N/N=C/c2cccnc2)cc1,.,i,0.9,4.8,-0.1,-0.3,-2.9,.,-2.9,-0.6
CC1CCN(C2=C(NS(=O)(=O)c3ccc(Cl)cc3)C(=O)c3ccccc3C2=O)CC1,0.717,i,14.4,8.7,4.3,2.1,1.9,4.1,13.4,-0.4
O=c1cc(Cl)[nH]c(=O)n1Cc1ccc(F)cc1,0.695,i,-2.8,-0.4,-6.0,-10.3,-24.8,5.2,.,-0.2
CN(C)c1ccccc1C(=O)N1CCCC(Nc2ccc(F)cc2)C1 (centres undefined),0.681,i,2.6,-0.1,-7.1,-1.4,-9.6,3.6,1.1,-0.1

# Source: PubChem (several laboratories)
